# Screens: PubChem, Broad Institute
# MLL AF4-AF9 inh: MLL-AF4/AF9 protein interaction inhibition. AlphaScreen, biotin-AF4 peptide binding to FLAG-AF9. inhibition, % at 10 µM. 350,000 compounds, 0.47% hits. AID 651704;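 active means every replicate reaching a set inhibition limit, whatever the replicate mean, cut at about 25% in these data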;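 further: 0% = plate neutral control median and 100% = total signal loss; the record names both 10 and 1 µM as test concentration; the first replicate is given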
# Target sequence (P42568 whole entry, looked up): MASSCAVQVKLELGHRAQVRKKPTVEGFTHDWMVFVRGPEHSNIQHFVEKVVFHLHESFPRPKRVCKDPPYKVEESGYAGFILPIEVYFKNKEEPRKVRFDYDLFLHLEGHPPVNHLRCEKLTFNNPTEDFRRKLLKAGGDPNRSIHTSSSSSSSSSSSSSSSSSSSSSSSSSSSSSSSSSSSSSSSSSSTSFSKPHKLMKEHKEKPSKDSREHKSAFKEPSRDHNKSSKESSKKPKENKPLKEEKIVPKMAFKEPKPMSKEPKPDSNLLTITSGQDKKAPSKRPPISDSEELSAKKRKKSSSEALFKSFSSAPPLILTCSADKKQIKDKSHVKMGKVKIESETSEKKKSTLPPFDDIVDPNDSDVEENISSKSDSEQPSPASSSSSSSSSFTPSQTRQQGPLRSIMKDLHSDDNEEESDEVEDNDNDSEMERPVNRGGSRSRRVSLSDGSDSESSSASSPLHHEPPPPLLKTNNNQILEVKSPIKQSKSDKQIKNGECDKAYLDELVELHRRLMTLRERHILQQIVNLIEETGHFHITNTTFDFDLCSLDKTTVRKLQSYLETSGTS
# Ecoli rRNA inh: inhibits bacterial ribosomal RNA function over humanized ribosomes | E. coli WT GFP vs humanized-ribosome RFP mutants, fluorescence, 24 h; stronger effect = lower value; DMSO median 0, no signal -100 | GFP signal change (wild-type ribosome), % (no concentration beside the values) | 350,000 compounds, 1.6% hits | AID 720706;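 active means significant combined selectivity score with lowered wild-type GFP, culture density cut under 30%, mutant RFP and density less affected; inactive means any of these conditions unmet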; further: one replicate is shown; some compounds called inactive have numbers as strong as hits
# FGF22 binding: binders of recombinant human FGF22 by thermal shift. Q9HCT0. SYPRO orange fluorescence; percent of sucrose octasulfate shift, DMSO zero. calls only at 9.99 µM. 340,000 compounds, 1.5% hits. AID 651658;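 active means melting point raised past a set limit in the mean and every replicate; three in four hits are not shown here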
# Target sequence (Q9HCT0 whole entry, looked up): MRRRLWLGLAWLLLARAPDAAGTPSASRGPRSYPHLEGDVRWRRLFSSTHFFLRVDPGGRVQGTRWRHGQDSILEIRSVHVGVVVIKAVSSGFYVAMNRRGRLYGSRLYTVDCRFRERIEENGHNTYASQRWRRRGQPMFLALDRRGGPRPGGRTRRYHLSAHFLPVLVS
# Ecoli rRNA inh OD600: further read-out of Ecoli rRNA inh, marked with its call; OD600 change, %; measured here: OD600 growth;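 optical density of the mix in the first replicate; 0 = DMSO median and -100 = no signal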
# Ecoli rRNA inh RFP: also measured in Ecoli rRNA inh; calls as there; RFP signal change, %; measured here: RFP humanized mutant strains;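 first replicate; 0 = DMSO median and -100 = no signal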
# * hit, by the source's call; i = inactive.
MLL AF4-AF9 inh	Ecoli rRNA inh	Ecoli rRNA inh OD600	Ecoli rRNA inh RFP	FGF22 binding	molecule
3.3	10	16	0.8	i	C[C@H]1CCCCO[C@H](CN(C)C(=O)Nc2cccc3ccccc23)[C@@H](C)CN([C@@H](C)CO)C(=O)c2cc(NC(=O)NC3CCCCC3)ccc2O1
0.9	6	-7	-0.1	i	COc1cccc(CNC(=O)C[C@@H]2CC[C@H](NC(=O)C3CCOCC3)[C@H](CO)O2)c1
-5.7	0	7	2.5	i	CCCNC(=O)N(C)C[C@H]1Oc2ncc(C#C[C@@H](C)O)cc2C(=O)N([C@H](C)CO)C[C@H]1C
3.8	7	11	0.8	i	O=C(C[C@H]1CC[C@H]2NC[C@@H](O)COC[C@@H]2O1)NCc1ccc(Oc2ccccc2)cc1
0.1	-3	-11	-1.0	i	COc1ccc(S(=O)(=O)Nc2ccc3c(c2)C(=O)N([C@H](C)CO)C[C@@H](C)[C@@H](CN(C)S(=O)(=O)c2cn(C)cn2)OCCCC[C@H](C)O3)cc1
-2.7	3	8	-2.1	i	COCC(=O)Nc1ccc2c(c1)[C@H]1C[C@@H](CC(=O)N(C)C)O[C@@H](CO)[C@H]1O2
-2.5	0	-15	-3.3	i	Cc1ccc(N(CC(=O)NC(C)(C)C)C(=O)CCC(=O)Nc2ccccn2)c(C)c1
2.6	1	-4	-0.4	i	COc1ccc(NC(=O)N(C)C[C@H]2Oc3cc(C#CCN(C)C)ccc3S(=O)(=O)N([C@H](C)CO)C[C@@H]2C)cc1

# Next part; it opens with the 3 that closed the last part.
MLL AF4-AF9 inh	Ecoli rRNA inh	Ecoli rRNA inh OD600	Ecoli rRNA inh RFP	FGF22 binding	molecule
-2.7	3	8	-2.1	i	COCC(=O)Nc1ccc2c(c1)[C@H]1C[C@@H](CC(=O)N(C)C)O[C@@H](CO)[C@H]1O2
-2.5	0	-15	-3.3	i	Cc1ccc(N(CC(=O)NC(C)(C)C)C(=O)CCC(=O)Nc2ccccn2)c(C)c1
2.6	1	-4	-0.4	i	COc1ccc(NC(=O)N(C)C[C@H]2Oc3cc(C#CCN(C)C)ccc3S(=O)(=O)N([C@H](C)CO)C[C@@H]2C)cc1
-0.7	2	3	0.1	i	O=C(N[C@H]1CC[C@H](CCn2cc(-c3ccccn3)nn2)O[C@H]1CO)c1ccc(F)cc1
-2.0	0	1	-0.6	i	COc1ccc(S(=O)(=O)Nc2cccc3c2O[C@@H](CN(C)C(=O)Nc2c(C)noc2C)[C@@H](C)CN([C@H](C)CO)C3=O)cc1
-0.7	1	-9	1.0	i	C[C@@H]1CN([C@@H](C)CO)C(=O)c2cc(-c3cccc(F)c3)cnc2O[C@@H]1CN(C)S(=O)(=O)c1cccc(F)c1
-0.3	2	-10	2.1	i	Cc1ccc(-c2cnc3c(c2)C(=O)N([C@H](C)CO)C[C@@H](C)[C@H](CN(C)C(=O)c2cccc(F)c2)O3)cc1
-1.3	0	-2	4.5	i	O=C(C[C@@H]1C[C@@H]2c3cc(NC(=O)c4ccc5c(c4)OCO5)ccc3O[C@@H]2[C@H](CO)O1)NCc1ccc(Cl)cc1
4.3	0	0	2.1	i	COc1ccc(NC(=O)N(C)C[C@@H]2Oc3c(NC(=O)Nc4cccc5ccccc45)cccc3C(=O)N([C@H](C)CO)C[C@@H]2C)cc1
-0.9	4	4	-0.8	i	CCCC(=O)Nc1ccc2c(c1)OC[C@@H](C)N(C(=O)CC1CC1)C[C@H](C)[C@H](OC)CN(C)C2=O
3.2	-3	-44	25	i	C[C@@H]1CN([C@@H](C)CO)C(=O)c2cc(NC(=O)Nc3ccc(C(F)(F)F)cc3)ccc2O[C@H]1CN(C)Cc1ccncc1
-3.5	2	-1	-0.8	i	O=C(C1CCOCC1)N1C[C@H]2[C@@H](c3ccccc31)[C@H](CO)N2C(=O)Cc1ccccc1
-27	-7	-11	-5.6	i	COc1cc2c(cc1NC(=O)C(Cl)Cl)-c1ccc(NC(=O)C(Cl)Cl)cc1C2
0.0	-1	5	1.2	i	COc1ccc(NC(=O)Nc2ccc3c(c2)C(=O)N([C@@H](C)CO)C[C@@H](C)[C@H](CN(C)C(=O)Nc2ccccc2)O3)cc1
6.1	-1	0	-1.5	i	C[C@@H]1CN([C@H](C)CO)C(=O)Cc2cc(NS(C)(=O)=O)ccc2O[C@@H]1CN(C)Cc1ccc(C(=O)Nc2ccccc2N)cc1
-2.9	-3	-8	5.4	i	COc1ccc(CNCCCn2cnc(C(=O)Nc3ccc(C)c(C)c3)n2)cc1
-3.5	4	19	-1.2	i	C[C@H]1CN([C@@H](C)CO)C(=O)c2cc(NS(=O)(=O)c3ccc(Cl)cc3)ccc2O[C@@H]1CN(C)S(=O)(=O)c1cn(C)cn1
-2.6	1	0	2.1	i	C[C@H]1CN([C@@H](C)CO)C(=O)c2cc(C#Cc3ccccn3)cnc2O[C@@H]1CN(C)Cc1ccncc1
-1.3	-1	7	0.8	i	Cc1noc(C)c1NC(=O)N(C)C[C@@H]1Oc2ccc(NS(=O)(=O)c3ccccc3)cc2CC(=O)N([C@H](C)CO)C[C@H]1C

# Some values from the list.
# COc1cc2c(cc1NC(=O)C(Cl)Cl)-c1ccc(NC(=O)C(Cl)Cl)cc1C2 | Ecoli rRNA inh OD600 = -11
# C[C@@H]1CN([C@H](C)CO)C(=O)Cc2cc(NS(C)(=O)=O)ccc2O[C@@H]1CN(C)Cc1ccc(C(=O)Nc2ccccc2N)cc1 | MLL AF4-AF9 inh = 6.1
# C[C@H]1CN([C@@H](C)CO)C(=O)c2cc(C#Cc3ccccn3)cnc2O[C@@H]1CN(C)Cc1ccncc1 | MLL AF4-AF9 inh = -2.6
# O=C(C1CCOCC1)N1C[C@H]2[C@@H](c3ccccc31)[C@H](CO)N2C(=O)Cc1ccccc1 | Ecoli rRNA inh RFP = -0.8
# C[C@H]1CN([C@@H](C)CO)C(=O)c2cc(NS(=O)(=O)c3ccc(Cl)cc3)ccc2O[C@@H]1CN(C)S(=O)(=O)c1cn(C)cn1 | Ecoli rRNA inh RFP = -1.2
# Cc1noc(C)c1NC(=O)N(C)C[C@@H]1Oc2ccc(NS(=O)(=O)c3ccccc3)cc2CC(=O)N([C@H](C)CO)C[C@H]1C | Ecoli rRNA inh OD600 = 7

# (continued)
MLL AF4-AF9 inh	Ecoli rRNA inh	Ecoli rRNA inh OD600	Ecoli rRNA inh RFP	FGF22 binding	molecule
-0.8	4	7	-1.8	i	C[C@@H]1CN([C@@H](C)CO)C(=O)c2cc(C#CC3(O)CCCC3)cnc2O[C@@H]1CN(C)C(=O)CN(C)C
-1.7	2	-1	0.2	i	CO[C@H]1CN(C)C(=O)c2cc(NC(=O)NC(C)C)ccc2OC[C@@H](C)N(CC2CC2)C[C@@H]1C
-3.0	5	5	0.8	i	C[C@@H]1CCCCO[C@H](CN(C)C(=O)CCCN(C)C)[C@@H](C)CN([C@H](C)CO)C(=O)c2cc(NC(=O)Cc3ccccc3)ccc2O1
3.5	-19	-60	24	i	COCC(=O)N(C)C[C@H]1Oc2cc(C#CCC3CCCC3)ccc2S(=O)(=O)N([C@H](C)CO)C[C@H]1C
2.8	-3	-9	0.5	i	C[C@H](CO)N1C[C@H](C)[C@H](CN(C)Cc2ccc(C(F)(F)F)cc2)Oc2c(NS(=O)(=O)c3ccc(Cl)cc3)cccc2C1=O
1.5	2	-2	-0.2	i	CCS(=O)(=O)Nc1ccc2c(c1)C(=O)N(C)C[C@@H](OC)[C@H](C)CN(C(C)=O)[C@@H](C)CO2
-0.2	0	-2	1.4	i	Cc1cc(Br)cn2c(Cc3ccccc3C(F)(F)F)c(-c3cccc(Cl)c3)nc12
-0.9	2	-10	8.6	i	C/C=C/c1ccc([C@@H]2[C@@H](CO)N3CCCCN(S(=O)(=O)c4cccc(C)c4)C[C@@H]23)cc1
4.9	-5	-2	1.7	i	COCC(=O)Nc1ccc2c(c1)OC[C@@H](C)N(Cc1ccccc1)C[C@H](C)[C@@H](OC)CN(C)C2=O
-3.4	7	3	-2.0	i	CS(=O)(=O)N1C[C@H](O)COC[C@@H]2O[C@@H](CC(=O)NCCc3ccncc3)CC[C@H]21
-7.2	7	12	0.0	i	CN1C(=O)c2cc(NC(=O)Cc3cccs3)ccc2OC[C@H]2O[C@H](CC(=O)NCC3CC3)CC[C@@H]21
6.7	-9	-33	26	i	C[C@@H]1CN([C@@H](C)CO)C(=O)c2cc(/C=C/c3ccccc3)cnc2O[C@H]1CN(C)C(=O)C1CCCCC1
-3.8	1	8	-4.8	i	O=C(C[C@H]1C[C@@H]2c3cc(NC(=O)Nc4ccccc4)ccc3O[C@@H]2[C@H](CO)O1)NCC1CC1
13	-52	-77	-16	i	COc1ccccc1CCn1cnc(-c2ccc(OC)c(OC)c2)c1CC(C)C
4.0	1	-8	-0.1	i	C[C@H](CO)N1C[C@H](C)[C@H](CN(C)S(=O)(=O)c2ccc(Cl)cc2)Oc2ccc(NS(=O)(=O)c3ccc(Cl)cc3)cc2CC1=O
-2.7	1	3	-0.5	i	C[C@@H]1CN([C@@H](C)CO)C(=O)c2cccc(NS(C)(=O)=O)c2O[C@@H]1CN(C)C(=O)Nc1ccccc1
0.7	-2	-1	-1.2	i	C[C@@H]1CN([C@H](C)CO)C(=O)c2cc(NC(=O)CCC(F)(F)F)ccc2O[C@@H](C)CCCCO[C@@H]1CN(C)S(C)(=O)=O
-5.6	6	8	-0.2	i	CCc1nc2ccc(C(=O)N3CCN(C(=O)c4ccco4)CC3)cn2c1N(C)C(=O)c1cccc(OC)c1
1.0	-3	-9	-0.4	i	O=C(CCN1CCCCC1)N[C@H]1CC[C@@H](CCNC(=O)c2cc(Cl)cc(Cl)c2)O[C@@H]1CO
-3.8	-2	-2	-1.9	i	COc1ccc(NC(=O)Nc2cccc3c2O[C@@H](CN(C)S(C)(=O)=O)[C@H](C)CN([C@H](C)CO)C3=O)cc1
-1.6	-5	-7	-4.7	i	C[C@@H]1CN([C@H](C)CO)C(=O)c2cccc(NS(C)(=O)=O)c2O[C@@H]1CN(C)C(=O)Nc1ccc(C(F)(F)F)cc1
4.1	2	2	1.7	i	C/C=C/c1ccc([C@H]2[C@H](CO)N[C@H]2CN(CC)C(=O)c2ccccn2)cc1
0.7	-3	-2	4.0	i	C[C@H](CO)N1C[C@H](C)[C@H](CN(C)Cc2ccccc2)Oc2ccc(NC(=O)CCCCCC(=O)Nc3ccccc3N)cc2CC1=O
-7.8	6	6	2.7	i	C[C@@H]1CN([C@H](C)CO)C(=O)c2cccc(NS(=O)(=O)c3cccs3)c2O[C@@H]1CN(C)Cc1ccc(C(=O)O)cc1
1.1	-1	-3	-0.1	i	O=C(N[C@H]1CC[C@H](CCNS(=O)(=O)Cc2ccccc2)O[C@H]1CO)c1ccc2c(c1)OCO2
0.5	-3	-3	0.4	i	C[C@@H]1CN([C@@H](C)CO)S(=O)(=O)c2ccc(C3=CCCC3)cc2O[C@H]1CN(C)Cc1ccccc1
-0.6	5	7	-0.9	i	ON=C1CCCCCCCC1
0.5	-15	-20	-2.7	i	CC(=O)c1cccc(NC(=O)C2Cc3c(-c4ccc5c(c4)OCO5)ccnc3O2)c1 (centres undefined)
-1.8	-1	1	-1.6	i	C[C@H]1CN([C@@H](C)CO)C(=O)c2cc(-c3cncnc3)cnc2O[C@H]1CN(C)Cc1ccccc1
8.5	6	10	-5.2	i	O=C(C(O)c1ccc(Br)cc1)N1CCC(Nc2ccc3[nH]ncc3c2)CC1 (centres undefined)
-1.8	2	3	-2.4	i	COc1ccc(CN(C)C[C@H]2OCCCC[C@@H](C)Oc3ccc(NC(=O)Nc4c(C)noc4C)cc3C(=O)N([C@H](C)CO)C[C@@H]2C)cc1
-0.2	2	-2	-1.3	i	CC(C)C#Cc1ccc([C@H]2[C@@H](CO)N3C(=O)CN(C(=O)NC4CCCC4)C[C@H]23)cc1
10	-45	-80	-14	i	CCCCCc1c(CC)ncn1CCc1ccccc1OC
2.4	-4	-4	-1.0	i	C[C@H]1CN([C@@H](C)CO)C(=O)c2cc(NC(=O)Nc3ccc(F)cc3)ccc2O[C@H]1CN(C)C(=O)Nc1ccc2c(c1)OCO2
0.1	2	2	-0.4	i	C[C@@H]1CN([C@@H](C)CO)C(=O)Cc2cc(NC(=O)CCN3CCOCC3)ccc2O[C@H]1CN(C)CC1CC1
-0.8	-23	-40	-13	i	CC1(C(=O)Nc2ccc3c(c2)OCO3)CCN1C(=O)CCC1CCCC1 (centres undefined)
7.0	-6	-6	-1.3	i	C[C@H]1CN([C@@H](C)CO)C(=O)c2cccc(NC(=O)Nc3ccc(C(F)(F)F)cc3)c2O[C@@H]1CN(C)Cc1ccncc1
-0.7	-1	18	-3.7	i	CO[C@H](CN(C)Cc1nccs1)[C@@H](C)CN([C@@H](C)CO)S(=O)(=O)c1ccc(C)cc1
-1.5	6	9	-1.6	i	O=C(NCC[C@H]1CC[C@H](NS(=O)(=O)Cc2ccccc2)[C@H](CO)O1)C1CCOCC1
-2.3	-3	5	-2.0	i	CC(=O)N(C)C[C@@H]1Oc2ncc(-c3ccccc3F)cc2C(=O)N([C@@H](C)CO)C[C@H]1C
8.4	-15	-23	5.4	i	O=C1NC[C@@H](CCCCN2C[C@H](Cc3ccc(O)cc3)N(CCc3ccccc3)C(=O)C2=O)N(CC2CCCCC2)C1=O
-2.6	4	2	5.0	i	CC1=C(C(=O)N(C)C)CC(CC(=O)NCCCCc2ccccc2)C(=O)N1Cc1ccccc1 (centres undefined)

# The list is partial (hit frequency here may not be typical).
